Screens (PubChem)
VDR inhibitor: blocks the human vitamin D receptor; VDR-SRC2-3 peptide fluorescence polarization, 2 h; Potency, µM, for the others: max response, negative = inhibition, most hits filed as inhibitors; AID 504847; 400,000 tested, 0.93% active; active = well fitted inhibition curve with a large enough effect; inconclusive = small, poorly fitted or top-dose-only effect, or another doubt; inactive = no such curve, though single readings can be large or run the other way; note: series mostly up to about 120 µM
Target sequence (P11473 whole entry, looked up): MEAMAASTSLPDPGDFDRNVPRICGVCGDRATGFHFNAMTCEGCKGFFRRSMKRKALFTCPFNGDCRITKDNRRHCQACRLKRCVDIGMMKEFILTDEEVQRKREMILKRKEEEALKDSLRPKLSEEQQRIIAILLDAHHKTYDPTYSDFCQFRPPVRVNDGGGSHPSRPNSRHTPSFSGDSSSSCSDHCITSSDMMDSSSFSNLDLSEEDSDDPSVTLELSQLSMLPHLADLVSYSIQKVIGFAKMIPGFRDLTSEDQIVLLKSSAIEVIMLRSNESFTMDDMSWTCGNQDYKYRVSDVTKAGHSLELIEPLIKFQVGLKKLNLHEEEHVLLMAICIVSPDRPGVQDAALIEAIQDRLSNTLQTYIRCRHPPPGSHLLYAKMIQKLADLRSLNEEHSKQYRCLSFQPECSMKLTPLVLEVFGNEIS
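Inhibition of the VDR/SRC2-3 peptide interaction is quantified by fluorescence polarization. Compounds (23 nl, pintool) incubate with the reagents for 2 hours at ambient room temperature.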
Starred values were filed as active, the others as inactive; ? = inconclusive. % is set by controls: 0 for no effect and ±100 for the full control effect; potency is the fitted concentration of half-maximal effect. This is a subset (hit frequency here may not be typical).

no.	SMILES	VDR inhibitor
1	Cc1onc(-c2ccccc2Cl)c1NC(=O)NCc1cccs1	1.9%
2	Cc1ccc(NC(=O)Nc2ncnc3nc[nH]c23)cc1	3.4%
3	COC(=O)c1cccc(S(=O)(=O)N2CCC(NC(=O)Nc3cccc(F)c3)CC2)c1	-21.0%
4	CCCC1(c2ccccc2)NC(=O)N(CC(=O)Nc2ccc3c(c2)OCCO3)C1=O (centres undefined)	-12.4%
5	COC(=O)C1=C(C)N(CC2CC2)C(=NCc2cccc(Cl)c2)N[C@H]1c1ccccc1	-15.4%
6	NS(=O)(=O)c1ccc(CCNC(=O)COC(=O)/C=C/c2ccccc2Cl)cc1	7.9%
7	Cc1ccc(CN2CCNC(=O)C2CC(=O)N(Cc2c(C)nn(C)c2C)C2CC2)o1 (centres undefined)	5.5%
8	CC(NC(=O)c1cccnc1Sc1ccccc1)c1ccc(S(N)(=O)=O)cc1 (centres undefined)	7.1%
9	CCCC(=O)Nc1cc(-c2nnc(OC)c3ccccc23)ccc1N1CCOCC1	-4.5%
10	CCN(CC)S(=O)(=O)c1cccc(C(=O)OCC(=O)Nc2ccc3c(c2)c2ccccc2n3CC)c1	-15.3%
11	Cc1ccc(S(=O)(=O)NCC(=O)NC2CCCC2)cc1	13.0%
12	CC(OC(=O)CC1CC2CCC1C2)C(=O)Nc1ccc(C(N)=O)cc1 (centres undefined)	-11.0%
13	Cc1occc1-c1nnc(SC(C)C(=O)Nc2ccccc2F)o1 (centres undefined)	-24.9%
14	CCCSc1ncnc2sc(C)c(C)c12	-8.7%
15	CCOC(=O)Cc1csc(NC(=O)Cc2cccs2)n1	-4.7%
16	Cc1noc(NS(=O)(=O)c2ccc(N/C=C\C(=O)c3ccc4c(c3)OCO4)cc2)c1C	-16.3%
17	CCC(=O)N(c1nnc(SCC(=O)NN2C(=O)NC3(CCC(C)CC3)C2=O)s1)C1CC1 (centres undefined)	-1.8%
18	C[C@H](CO)N1C[C@H](C)[C@@H](CN(C)S(=O)(=O)c2ccc(F)cc2)Oc2ccc(NC(=O)Nc3ccc(C(F)(F)F)cc3)cc2C1=O	-0.7%
19	O=C(N/N=C\c1ccc(-c2ccc(Cl)c(Cl)c2)o1)C(=O)N1CCCC1	-8.4%
20	COc1ccc(NC(=O)C(=O)NCCC2CCCCN2S(=O)(=O)c2ccccc2)cc1 (centres undefined)	-10.2%
21	O=[N+]([O-])c1cccc(S(=O)(=O)N2CCCC2)c1	6.4%
22	Cc1c(NC2=C(Cl)C(=O)N(c3ccccc3Cl)C2=O)c(=O)n(-c2ccccc2)n1C	-23.6%
23	CN(Cc1ccco1)c1ccnc(-c2cccnc2)n1	44.7µM*
24	Cc1cc(/C=C2/C(=N)N3C(c4ccccc4)=CSC3=NC2=O)c(C)n1-c1ccccc1	1.1%
25	Cc1ccc(NC(=O)C2CCCN2C(=O)NC2CCCCC2)cc1 (centres undefined)	-5.1%
26	COc1cc(OC)c2ccc(=O)oc2c1C(CC(=O)N1CCCC(C)C1)c1ccc2c(c1)OCO2 (centres undefined)	-4.3%
27	Cc1cc(NC(NC(=O)c2ccco2)(C(F)(F)F)C(F)(F)F)no1	21.7%
28	C#CCNC(=O)C1=C[C@@H](c2csc3ccccc23)[C@H](CCCO)[C@@H](OCC)O1	-9.0%
29	Cc1nc(C)n(CC(O)COc2ccc3c(c2)CCC3)n1 (centres undefined)	10.5%
30	CCOc1ccc(-c2nc(CSCC(=O)NC3CC3)c(C)o2)cc1	10.5%
31	COc1cc(-c2nnc(SCc3ccccc3Cl)o2)cc(OC)c1OC	0.9%
32	CS(=O)(=O)NCCc1csc2nc(-c3ccccc3)nn12	5.6%
33	COc1ccc(OC)c2[nH]c(=O)c(CCNC(=O)CC(C)C)cc12	-7.3%
34	COc1ccc(CNC(=O)C2CCCN(c3nc4ccccc4o3)C2)c(OC)c1 (centres undefined)	6.8%
35	CCCCOc1ccc(CCC(=O)N/N=C/c2ccco2)cc1	0.7%
36	O=C(COC(=O)CCOc1ccccc1)Nc1ncc(Cl)cc1Cl	0.0%
37	O=C1NC(c2ccccc2)C(C(=O)c2cccs2)C(O)(C(F)(F)F)N1 (centres undefined)	-8.2%
38	O=C(N/N=C/c1ccc(-c2ccc([N+](=O)[O-])cc2)o1)C(O)c1ccccc1 (centres undefined)	14.6%
39	S=c1[nH]nc(-c2ccccn2)n1/N=C/c1c(Cl)cccc1Cl	-5.3%
40	COc1cccc(C(=O)N2CCN(Cc3cccc(F)c3)CC2)c1	2.9%

Exported with each value named: entries from further up.
(25) Cc1ccc(NC(=O)C2CCCN2C(=O)NC2CCCCC2)cc1 (centres undefined)
  VDR inhibitor: -5.1%
(36) O=C(COC(=O)CCOc1ccccc1)Nc1ncc(Cl)cc1Cl
  VDR inhibitor: 0.0%
(37) O=C1NC(c2ccccc2)C(C(=O)c2cccs2)C(O)(C(F)(F)F)N1 (centres undefined)
  VDR inhibitor: -8.2%
(39) S=c1[nH]nc(-c2ccccn2)n1/N=C/c1c(Cl)cccc1Cl
  VDR inhibitor: -5.3%

The list goes on.
no.	SMILES	VDR inhibitor
41	Cc1ccc2c(COC(=O)CNS(=O)(=O)c3ccccc3)cc(=O)oc2c1	-2.8%
42	Cn1ccc2cc(S(=O)(=O)N3CCC(C(=O)NCCc4ccccc4)CC3)ccc21	0.2%
43	Cc1ccc(NC(=O)CN2C(=O)NC(Cc3c[nH]c4ccccc34)C2=O)cc1 (centres undefined)	1.7%
44	N#C/C(=C\c1ccc(OCC(N)=O)cc1)c1ccccc1	-4.3%
45	Cc1cc(C)c(C)c(S(=O)(=O)NC(C(=O)NCCc2ccco2)C(C)C)c1C (centres undefined)	-1.0%
46	Nc1nnn(CC(=O)N/N=C/c2ccc(Cl)cc2Cl)n1	-6.1%
47	Cc1cc(C)cc(OCC(=O)OCC(=O)Nc2c(C)n(C)n(-c3ccccc3)c2=O)c1	?
48	COc1cccc(NC(=O)CSC2=Nc3ccccc3C3=NC(CC(=O)NC4CCCCC4)C(=O)N23)c1 (centres undefined)	1.8%
49	C=CCN(c1ccccc1)S(=O)(=O)c1cccc(C(=O)OCC(=O)NC2CC2)c1	-4.8%
50	CCOc1ccccc1N(C)C(=O)Cn1nc(Cc2ccncc2)c2ccccc2c1=O	-11.5%
51	CCCc1cc(=O)[nH]c(SCCCCN2C(=O)c3ccccc3C2=O)n1	-2.6%
52	O=C1CCCN1CCCNS(=O)(=O)c1cccs1	9.3%
53	CNC(=S)Nc1ccc(N2CCCC2)c(S(=O)(=O)Nc2ccc(OC)cc2)c1	-7.2%
54	CCCOc1nc2c(c(=O)n(C)c(=O)n2C)n1Cc1cccc2ccccc12	-2.1%
55	O=C(NC1CCCc2ccccc21)C1CCN(c2c3c(nc4ncnn24)CCC3)CC1 (centres undefined)	-6.5%
56	O=C(Nc1ccc(S(=O)(=O)N2CCCCCC2)cc1)c1ccco1	4.8%
57	COc1cc(OC)c(C2CC(=O)N3CN(C)CSC3=C2C#N)cc1OC (centres undefined)	?
58	COc1cc(NC(=O)c2cc3c(=O)n(Cc4cccs4)ccc3nc2C)cc(OC)c1OC	2.0%
59	COc1ccccc1C(=O)NC(=O)COC(=O)c1ccc(NC(=O)CC#N)cc1	8.1%
60	Cc1ccc(NS(=O)(=O)c2ccc(-n3cccn3)cc2)c(Br)c1	3.7%

Records above printed as active in VDR inhibitor.
no.	SMILES	VDR inhibitor
23	CN(Cc1ccco1)c1ccnc(-c2cccnc2)n1	44.7µM*

The list goes on:
no.	SMILES	VDR inhibitor
61	CCOC(=O)CC(=O)Nc1nnc(CC(C)C)s1	7.3%
62	Cn1nc(-c2ccccc2)c(C(=O)NCC(=O)O)c1Cl	2.7%
63	Cc1cccc(NC(=O)NNC(=O)c2ccccn2)c1	1.7%
64	Cc1cc(C(=O)NCC(=O)OCC(=O)N(C(C)C)C(C)C)ccc1[N+](=O)[O-]	1.5%
65	CC(=O)c1c(O)cccc1O	-16.8%
66	COC(=O)CS(=O)(=O)c1ccsc1C(=O)Nc1ccc(F)cc1	0.0%
67	Oc1ccccc1C=NN=CC=Cc1ccccc1	-16.8%
68	Cc1ccc(CN2CCCn3nc(C(=O)NCCc4ccccc4Cl)cc3C2=O)cc1	4.5%
69	O=C(Nc1ccc(N2CCOCC2)cc1)c1ccc(Cl)nc1	2.5%
70	O=C(N/N=C/c1cnc(N2CCOCC2)s1)c1ccccc1	6.9%
71	Cc1ccc(-c2nnc(SCC(=O)NC3CCCC3)nc2-c2ccc(C)cc2)cc1	7.9%
72	O=C(COC(=O)c1ccc(Br)cc1)NCCc1ccccc1	-22.6%
73	COc1ccc(CCNC(=O)CCC(=O)N2CCOc3ccccc32)cc1OC	-4.4%
74	Cc1ccc(NC(=O)CN(C)C(=O)c2cccc(S(=O)(=O)NCc3cccs3)c2)cc1	5.0%
75	CCCCCC(=O)NC(=S)Nc1ccc(Cl)cn1	1.5%
76	Cc1nnc(NC(=O)CSc2nnc(C(C)NC(=O)c3ccccc3F)n2C)s1 (centres undefined)	-3.5%
77	Cc1cc(NC(=O)C(C)SCC(=O)OC(C)C(=O)Nc2ccccc2C)no1 (centres undefined)	-12.6%
78	Cc1ccc(CNC(=O)CSc2nc3c(sc4ccccc43)c(=O)n2CCCOC(C)C)cc1	-11.0%
79	CN(C)S(=O)(=O)c1ccc(C(=O)Nc2nnc(SCc3cccc4ccccc34)s2)cc1	2.1%
80	COc1ccc(CNC(=O)Cn2ccc3cc(S(=O)(=O)N4CCCCCC4)ccc32)c(OC)c1	2.2%

Look-ups from the entries so far.
Under VDR inhibitor, COc1ccc(CNC(=O)Cn2ccc3cc(S(=O)(=O)N4CCCCCC4)ccc32)c(OC)c1 has 2.2%
Under VDR inhibitor, Cc1cc(/C=C2/C(=N)N3C(c4ccccc4)=CSC3=NC2=O)c(C)n1-c1ccccc1 has 1.1%
Under VDR inhibitor, Cc1nc(C)n(CC(O)COc2ccc3c(c2)CCC3)n1 (centres undefined) has 10.5%
Under VDR inhibitor, O=C1NC(c2ccccc2)C(C(=O)c2cccs2)C(O)(C(F)(F)F)N1 (centres undefined) has -8.2%
Under VDR inhibitor, Cc1ccc(NC(=O)C2CCCN2C(=O)NC2CCCCC2)cc1 (centres undefined) has -5.1%
Under VDR inhibitor, Cc1ccc(CN2CCNC(=O)C2CC(=O)N(Cc2c(C)nn(C)c2C)C2CC2)o1 (centres undefined) has 5.5%

Following part
no.	SMILES	VDR inhibitor
81	COc1cc(/C=C2\NC(=S)N(C)C2=O)ccc1OCc1ccccc1F	-1.8%
82	CC1=C(C(=O)OCc2ccccc2)C(c2ccc([N+](=O)[O-])cc2)NC(=O)N1CCCC(=O)O (centres undefined)	-2.5%
83	CCOc1ccc(OCc2ccc(C(=O)NCc3ccncc3)o2)cc1	-4.9%
84	CSc1cccc(NC(=O)c2[nH]c(C)c(C(C)=O)c2C)c1	9.4%
85	COc1ccc(/C=N/NC(=O)C(C)Sc2ccccn2)cc1[N+](=O)[O-] (centres undefined)	2.0%
86	CN(C)c1ccc(CN(CC2CCCO2)C(=O)COc2ccccc2Cl)cc1 (centres undefined)	8.1%
87	O=C(CC1CCC1)NC(c1ccccc1)c1ccccc1	3.5%
88	COc1cc(C#N)c(NC(=O)CN2CCN(CCO)CC2)cc1OC	4.8%
89	CCOC(=O)c1c(-c2ccccc2)csc1NC(=O)CSc1nnc(C)s1	-10.0%
90	O=C(O)CCC(=O)NNC(=O)c1ccc([N+](=O)[O-])cc1	?
91	N#Cc1c[nH]n2c(=O)c3c(nc12)CCC3	12.1%
92	CCOC(=O)c1sc2nc(C)nc(N3CCN(S(=O)(=O)c4ccccc4)CC3)c2c1C	-8.4%
93	O=[N+]([O-])c1ccc(/C=N/NC(=S)Nc2ccccc2)o1	-7.2%
94	Cc1c(C)n(Cc2ccccc2)c2ccc(C(=O)NCC(C)c3ccccc3)cc12 (centres undefined)	8.7%
95	CN(C)S(=O)(=O)c1cccc(-c2csc(=Nc3ccccc3)n2CCCN2CCOCC2)c1	6.5%
96	NC(N)=Nc1nc(CCN2C(=O)c3ccccc3C2=O)cs1	5.9%
97	Cc1nc(Nc2cccc(O)c2)c2oc3ccccc3c2n1	-19.9%
98	CC1CCN(CC(=O)c2cccs2)CC1	1.4%
99	O=C(CCN1C(=O)C2CC=C(Cl)CC2C1=O)N1CCCCC1 (centres undefined)	1.6%
100	COc1cccc(N2CCN(c3ccc4nnc(CCC(=O)Nc5ccc(F)cc5)n4n3)CC2)c1	-17.8%
101	Cc1c(C)n(C(=O)CN2CCC(C(N)=O)CC2)c2ccccc12	-4.9%
102	O=C(CSc1nnc2ccccn12)NCCN1C(=O)CSC1=O	12.7%
103	O=[N+]([O-])c1cc(/C=N/NC(=S)Nc2ccccc2Cl)ccc1Cl	?
104	O=C(O)Cc1ccc(C(=O)c2ccc(Cl)cc2)s1	10.9%
105	CCN(CC)S(=O)(=O)c1ccc(Nc2ccc(-c3ccc4c(c3)OCCO4)nn2)cc1	7.3%
106	CC(C)(C)c1cc(C(=O)NNc2ccc(OC(F)(F)F)cc2)n(Cc2ccccc2)n1	-1.8%
107	COc1ccc(Nc2c3c(nc4ccc(NC(=O)c5cc(Cl)ccc5OC)cc24)CCCC3)cc1OC	11.5%
108	FC(F)Sc1nc(-c2ccccc2)c(-c2ccccc2)n1C(F)F	-14.6%
109	Cc1cc(C)nc(N2CCN(CC(=O)NCc3ccccc3)CC2)n1	11.8%
110	COC(=O)Cc1[nH]n(-c2nc3ccccc3s2)c(=O)c1C(C)=Nc1ccc(C)cc1	0.6%
111	CC(C)NCC(O)COCc1ccc(Cl)cc1 (centres undefined)	12.9%
112	Cc1ccc(C)c(NCc2n[nH]c(=S)n2-c2ccccc2)c1	1.4%
113	COc1cccc(NC(=O)C(C)n2c(=O)cc(C(F)(F)F)c3c(C)nn(C)c32)c1 (centres undefined)	1.6%
114	CCN(c1ccccc1)S(=O)(=O)c1ccc(C(=O)Nc2cccc(C)n2)cc1	14.6%
115	CC(=C/c1ccccc1)/C=N/Nc1nc(N2CCOCC2)nc(N2CCOCC2)n1	-10.9%
116	Cc1ccc(C(O)(c2ccccc2)c2ccccc2C(C)N(C)C)c(C)c1 (centres undefined)	-17.2%
